Compound activity as filed in PubChem.
miR-21 FLuc: miR-21 reporter, rising signal; 340,000 tested, under 10 active; AID 2288; Potency, µM (series often up to 38.3 µM), without a hit: top-dose reporter change, positive = more light; HeLa miR-21 FLuc reporter, luciferase, 48 h; active = well fitted rising curve with a large enough effect; inconclusive = small, poorly fitted or top-dose-only effect; inactive = no such curve, though single readings can be large or run the other way;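 also: % of control where 0% means no effect; miR-21 action dims this reporter so a rising signal means less miR-21 action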
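HeLa cells stably expressing CMV-driven firefly luciferase with a downstream miR-21 binding sequence, endogenously expressing miR-21, were treated with titrations (up to about 40uM final) for 48 hours at 37 degree Celsius. Luciferase luminescence was read after lysis.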
GLA inh pH 4.5: alpha-galactosidase A (human) inhibition, pH 4.5. 230,000 tested, under 10 active. P06280. activity change, negative = inhibition, % at 105 µM. purified enzyme, 4-MU-alpha-Gal fluorescence, pH 4.5; inconclusive = small, poorly fitted or top-dose-only inhibition, or a rising curve; inactive = flat fitted curve, though single readings scatter; no compound was filed as active;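 also: 0% = full activity with enzyme and -100% = basal without enzyme; dose as in the result columns while the protocol names 77 µM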
Target sequence (P06280 whole entry, looked up): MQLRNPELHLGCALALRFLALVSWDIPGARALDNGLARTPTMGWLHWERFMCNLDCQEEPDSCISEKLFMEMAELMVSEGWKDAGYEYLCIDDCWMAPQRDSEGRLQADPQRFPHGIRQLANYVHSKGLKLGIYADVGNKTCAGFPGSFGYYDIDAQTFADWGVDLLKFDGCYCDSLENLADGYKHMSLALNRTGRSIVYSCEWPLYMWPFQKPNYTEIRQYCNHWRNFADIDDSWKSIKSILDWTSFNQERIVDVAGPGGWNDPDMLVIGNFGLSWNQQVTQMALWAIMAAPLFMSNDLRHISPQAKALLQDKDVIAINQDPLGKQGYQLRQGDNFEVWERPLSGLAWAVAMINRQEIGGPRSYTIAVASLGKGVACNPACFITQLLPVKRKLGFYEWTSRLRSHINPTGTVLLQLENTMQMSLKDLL
Rango-impB inh: inhibitors of Rango-importin beta complex formation; Rango CFP/YFP FRET sensor + importin beta, 45 min; actives 0.031% (n = 340,000); Q14974; Potency, µM (titrated, usually from 92.2 µM), inactives show at the top dose inhibition of complex formation; active = rising FRET ratio curve, often small or poorly fitted; inconclusive = mostly compound fluorescence or quenching in the first reads; inactive = flat curves in all reads;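 also: potency is read from the fitted curve at half-maximal effect; 0% = DMSO wells and 100% = buffer wells lacking importin beta; nearly all actives have a fitted effect of over 15% in size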
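Inhibition scored from the CFP 486 nm/YFP 530 nm FRET ratio 45 min after adding 0.125 microM importin beta to 50 nM Rango biosensor preincubated 5 min with compound (room temperature, PBS with DTT, Tween-20, BSA). No-importin wells as positive control.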
Rango release inh: inhibitors of RanGTP-induced Rango-importin beta complex dissociation | O95149+P62826 | Biochemical FRET Rango-importin beta, RanGTP-induced dissociation | Potency, µM (highest dose often 46.1 µM), for inactives: at the highest dose activity change, negative = inhibition | actives 0.071% (n = 340,000) | AID 540253; active means falling FRET ratio curve, often poorly fitted, with flat reads before Ran was added; inconclusive means other falling curves, or compound fluorescence or quenching; inactive means flat or rising ratio curve;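 also: potency is read from the fitted curve at half-maximal effect; % of control where 0% means no effect; nearly all actives have a fitted effect of over 45% in size; -100% = wells without RanGTP and RCC1; the record marks most hits as doubtful in a second field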
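Compounds sat 5 min at room temperature with 0.1 uM Rango biosensor plus 0.25 uM importin beta, then FRET pre-read. RanGTP-RCC1 (0.6 uM Ran, 2mM GTP, 0.2 uM RCC1) added for 45 min, and the CFP/YFP post-read measured blocked complex dissociation.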
Starred values were filed as active, the others as inactive; ? = inconclusive; nt = no result given; & = joins results of further samples.

Compound	miR-21 FLuc	GLA inh pH 4.5	Rango-impB inh	Rango release inh
O=C(N/N=C/c1ccc(O)c([N+](=O)[O-])c1)C1CC1(c1ccccc1)c1ccccc1 (stereo unspecified)	-33%	2	7.3%	17%
COc1cc(C)c2c(c1C=O)Oc1c(c(C)c(O)c3c1C(O)OC3=O)OC2=O (stereo unspecified)	-1%	-5&4&-3	?	?
O=C(CN(Cc1ccco1)C(=O)c1cccc(F)c1)Nc1ccccc1C(F)(F)F	nt	nt	0.3%	1%
CCCNC(=O)C1(CC2CC(c3ccccc3)=NO2)CCN(C(=O)CCCCCBr)CC1 (stereo unspecified)	nt	nt	3.8%	-3%
COc1ccc(-c2nnc(SCC(=O)NCCC(C)C)nc2-c2ccc(OC)c(OC)c2)cc1OC	-10%&-6%	nt	0.9%	-12%
N#Cc1nc(COc2ccc(F)cc2)oc1NCCN1CCOCC1	-1%	-1	-0.1%	-11%
CNc1ccc(Br)cc(C(=O)/C=C/c2cc(OC)ccc2OC)c1=O	20%	-4	2.1%	?
CCN(C(=O)COc1ncnc2ccc(Br)cc12)C1CCS(=O)(=O)C1 (stereo unspecified)	4%	5	0.8%	0%
COc1ccc(S(=O)(=O)N2CCN(C(=O)c3ccco3)CC2)c(C)c1C	9%	nt	-1.8%	-8%
COc1ccc(NS(=O)(=O)c2ccc(NC(=O)c3ccccn3)cc2)cc1	nt	nt	2.7%	11%
Cc1ccc(NS(=O)(=O)c2ccc(-c3csc(C)n3)s2)c(C)c1	-5%	-2	2.1%	2%
CN1CCN(C(=O)C2=C[C@@H](c3coc4ccccc4c3=O)C[C@@H](OCCCCO)O2)CC1	-2%	4	-4.4%	-7%
O=C(Nc1ccccc1)C1CC(O)CN1S(=O)(=O)c1ccc([N+](=O)[O-])cc1 (stereo unspecified)	-11%	-4	3.4%	-6%
Cc1ccc2nc(/C(C#N)=C/c3ccc(-c4cccc([N+](=O)[O-])c4)o3)[nH]c2c1	-7%	-13	?	?
COC(=O)c1sc(SC)nc1N	-11%	-1	-0.5%	0%
CC(=O)Nc1nnc(SCC(=O)NC2CCCC2)s1	0%	nt	0.2%	-3%
Cc1cccc(NC(=S)NCC(C)CSc2ccc(Cl)cc2)c1 (stereo unspecified)	27%	0	-1.4%	19%
NC(=O)c1cc[n+](CC(=O)NC(=O)Nc2ccccc2)cc1	nt	nt	0.6%	8%
NS(=O)(=O)c1ccc(Nc2nc(-c3ccc4ccccc4c3)cs2)cc1	2%	2	?	-7%
Cc1ccc(N(C(=O)Cn2nnc(-c3ccccc3)n2)C(C(=O)NC2CCCCC2)c2ccccn2)cc1C (stereo unspecified)	-6%	2	2.0%	1%
Cc1cc(NC(=O)CSc2nnc(C3COc4ccccc4O3)n2C)no1 (stereo unspecified)	-1%	2	2.8%	-14%
N#C/C(=C/c1cccc([N+](=O)[O-])c1)c1nnc2n1CCCCC2	18%	6	-1.0%	-5%
CCOC(CCNC(=O)c1cn(CCOC)c(=O)c2c1c1ccccc1n2C)OCC	-2%	nt	-1.5%	-15%
Cc1cc(C)nc(N2CCCC(C(=O)NC(C)CCc3ccco3)C2)n1 (stereo unspecified)	-1%	8	0.9%	0%
O=C(c1ccncc1)N(c1ccc2oc3c(c2c1)CCCC3)S(=O)(=O)c1ccc(F)cc1	-17%	-6	-0.6%	-6%
CC(C)Nc1nc(NC(C)C)nc(N(C#N)CCOc2ccc(Cl)cc2Cl)n1	3%	-22	5.6%	-12%
C/C(=N\Nc1cc(N2CCOCC2)ncn1)c1ccccc1	-35%	nt	1.3%	2%
CC(C)(C)CC(=O)N[C@@H](Cc1ccccc1)c1nc2ccccc2[nH]1	4%	nt	3.7%	-4%
O=S(=O)(c1ccc2nnn(O)c2c1)N1CCCCC1	0%	6	2.9%	0%
O=C(NC1CCCCC1)C(c1ccc(F)cc1)N(C(=O)Cc1ccsc1)c1ccc(F)cc1 (stereo unspecified)	-7%	-1	3.0%	0%
CC(C)C(=O)c1cn(CC(=O)NCC2CCCO2)c2ccccc12 (stereo unspecified)	0%	5	-3.3%	1%
Cc1c(C(=O)N/N=C/c2cccnc2)nnn1-c1nonc1N	5%	nt	3.5%	4%
CC(C)CC(C(=O)O)N1C(=O)[C@@H]2[C@H](C1=O)[C@@H]1C[C@H]2C(Br)C1Br (stereo partly specified)	-4%	-8	0.5%	10%
Cc1ccccc1Nc1c(-c2ccccn2)nc2c(C)cccn12	?	4	-1.1%	14%
COc1ccc(OC)c(NC(=S)NCc2ccco2)c1	nt	nt	-2.6%	-14%
Cc1cc(/C=N/Nc2nc(N3CCOCC3)nc(N3CCOCC3)n2)c(C)n1-c1ccccc1	19%	-8	2.5%	9%
Cc1ccc(CN(C#N)c2nc(C)cc(C)n2)cc1	-17%	-6	-15%	-23%
Cc1cc(NC(=O)CSCC(=O)N2CCN(c3cccc(C)c3C)CC2)no1	nt	nt	1.4%	11%
Cc1ccc(Cn2c(=O)n(-c3ccccc3)c(=O)c3ccc(C(=O)NCc4ccco4)cc32)cc1	0%&-12%	5	2.4%	-12%
C=CCOc1nc(-c2ccccc2Cl)nc2ccccc12	-6%	2	-2.2%	19%
Cc1cccc(N2C(=S)N=C(Nc3c(C)cccc3C)C23CCOC(C)(C)C3)c1 (stereo unspecified)	8%	6	0.1%	3%
c1cc(CSc2nnc(-c3ccc4c(c3)OCO4)o2)ccn1	-27%	2	-2.1%	-3%
COc1ccc(C(=O)N[C@H]2COC(C)(C)O[C@H]2c2ccccc2)cc1	-13%	-11	-0.2%	-3%
C#CCOCCOCCOCCNc1nc(N2CCN(C(=O)C([C@@H](C)O)n3cc([C@@H](N)CCCCN)nn3)CC2)nc(N2CCN(C(=O)[C@H](CCCCN)n3cc(CN)nn3)CC2)n1 (stereo partly specified)	nt	nt	10%	-6%
Cc1cccc(-c2noc(CN(C(=O)C34CC5CC(CC(C5)C3)C4)C(C)C)n2)c1	-8%	-7	2.9%	16%
CC(=O)c1cn(Cc2ccccc2)c(=O)[nH]c1=O	-3%	1	-0.3%	-14%
COc1ccc2c(c1)CC/C2=N\OC(=O)c1ccccc1OC	-33%	2	5.7%	27%
Cc1ccc(SCCC(=O)NCCSCc2ccco2)cc1	-3%	-17	-3.0%	-9%
COc1ccc(NS(=O)(=O)c2cc(NC(=O)CCNC(C)=O)ccc2N2CCCCC2)cc1	nt	nt	0.6%	-3%
COc1ccc(S(=O)(=O)N2CCCC(C(=O)NCCN3CCOCC3)C2)cc1C (stereo unspecified)	0%	nt	0.1%	0%
CCSc1nnc(NC(=O)[C@@H](NC(=O)c2cc(OC)cc(OC)c2)C(C)C)s1	-3%	6	-0.9%	?
COc1ccc(NC(=O)C2CCCN(S(=O)(=O)c3ccc(-n4cnnn4)cc3)C2)cc1 (stereo unspecified)	-3%	nt	-5.5%	0%
Cc1cc(C)nc(SCc2n[nH]c(=S)n2C)n1	-20%	9	2.4%	-7%
COc1ccc(NC(=O)CSc2nnc(CNC(=O)COc3ccc(Cl)cc3)o2)cc1	-2%	1	?	-9%
CCC(C(=O)Nc1nnc(-c2ccco2)s1)c1ccccc1 (stereo unspecified)	-16%	1	-1.8%	-5%
COc1ccc(S(=O)(=O)N2CCC(C(=O)O)(c3ccccc3)CC2)cc1	-1%	nt	0.5%	-13%
C#CCOc1ccc(/C=C2/C(=O)NN(c3ccc(F)cc3)C2=O)cc1OC	-2%	nt	-1.1%	0%
CC1(OC(=O)C2CCCC2)C(=O)C=C2C=C(c3ccsc3)N(C3CCCC3)C=C2C1=O (stereo unspecified)	1%	9&-3	?	-21%
COCCCNC(=O)c1ccc(CS(=O)(=O)c2ccccc2OC)o1	-1%	nt	-2.1%	9%
O=C(NCCNS(=O)(=O)c1ccccc1)N1CCOCC1	0%	6	-2.0%	3%

Going on with the list.
Compound	miR-21 FLuc	GLA inh pH 4.5	Rango-impB inh	Rango release inh
CCCN1C=CC(=C2C(=O)c3ccccc3C2=O)C=C1	?	-14	3.6%	1%
COC(=O)c1ccc(CN(c2ccc(C)cc2)S(=O)(=O)c2ccc3c(c2)OCCO3)o1	8%	-3	-6.0%	8%
O=C(CSc1nc2ccccc2o1)N1CCN(c2ccc(Cl)cc2)CC1	1%	8	-6.2%	-12%
CC(C)(C)C(=O)Nc1ccccc1C(=O)NCc1cccnc1	-9%	4	1.1%	-6%
Cc1ccc(OCC(=O)O/N=C(\N)c2cccnc2)cc1	-51%	5	0.7%	4%
CCc1noc(C)c1C(=O)N1CCCSC1=Nc1ccccc1Cl	nt	nt	3.1%	10%
S=C(Nc1ccccc1Cl)N(Cc1ccccc1)Cc1cccnc1	4%	-1	0.9%	8%
O=C(CSc1nnc(NC(=O)c2c(F)cccc2F)s1)NC1CCCC1	-6%	nt	-0.2%	19%
C/C(=N/NS(=O)(=O)c1ccc(Br)cc1)c1ccc(C)o1	-19%	-28	2.0%	4%
O=C(CSc1cc([N+](=O)[O-])cc(S(=O)(=O)Cc2ccccc2)c1)NC1CC1	-4%	-7	0.6%	4%
Cc1cccc(-n2c(SCC(=O)N3CCCC3)nc3n[nH]c(C)c3c2=N)c1	-20%	-2	-1.2%	-1%
Cc1noc2ncnc(Oc3ccccc3Cl)c12	-8%	3	-2.2%	16%
Cc1cccc(-n2ncc3c(NCCN4CCOCC4)ncnc32)c1	-27%	nt	2.2%	17%
CN(O)/C=c1/ccc2c(n1)C(=O)C=CC=2	26%	2	-3.9%	-16%
COc1cc(/C=N/NC(=O)Cc2nnc(NC(=O)c3ccccc3)s2)ccc1O	-14%	nt	-0.8%	30%
COc1ccc(OCC(=O)N2N=C(C)CC2(O)C(F)(F)F)cc1 (stereo unspecified)	0%	3	0.0%	2%
COC(=O)c1sccc1NC(=S)N1CCN(c2ccccc2)CC1	-13%	-3	1.1%	2%
O=C(CSc1ccc(-c2ccco2)nn1)Nc1ccccc1F	-7%	nt	-1.8%	?
CCCCn1c(=NC(=O)c2ccco2)c(C(=O)OCC)cc2c(=O)n3ccccc3nc21	-5%	1	?	?
O=C(NCCc1ccccc1)c1ccc(CS(=O)Cc2ccc(Cl)cc2)o1 (stereo unspecified)	-1%&-6%	nt	1.7%	17%
CC(=O)c1ccc(S(=O)(=O)N(C)CCCC(=O)N(C)Cc2ccccc2F)cc1	1%	nt	-3.9%	-13%
COC(=O)/C(C#N)=C1/C=Cc2ccccc2N1C	-52%	-2	?	1%
COc1ccccc1CNC(=O)c1csc2c1CCCC2	-25%	-2	-0.3%	5%
C=CC(=O)Nc1ccc(Nc2nc(NC3CCC(N(C)C)CC3)nc3c2ncn3C(C)C)cc1 (stereo unspecified)	nt	nt	-3.4%	-6%
O=C(NC(=S)Nc1ccc(CN2CCOCC2)cc1)c1ccc([N+](=O)[O-])cc1	2%	6	-0.9%	0%
O=C(O)CSc1cccnc1Sc1ccc(Cl)cc1	nt	nt	1.6%	3%
FC(F)Sc1ccc(NC(=S)NC2CCC(NC(=S)Nc3ccc(SC(F)F)cc3)CC2)cc1 (stereo unspecified)	1%	6	1.5%	32%
CCCCN(C(=O)CSCC(=O)Nc1cccc(C)c1)c1c(N)n(Cc2ccccc2)c(=O)[nH]c1=O	nt	nt	4.6%	12%
CC(CC(=O)NCc1cccnc1)c1ccccc1 (stereo unspecified)	-1%	0	0.7%	-4%

Random excerpt: two compounds from above
Compound	miR-21 FLuc	GLA inh pH 4.5	Rango-impB inh	Rango release inh
FC(F)Sc1ccc(NC(=S)NC2CCC(NC(=S)Nc3ccc(SC(F)F)cc3)CC2)cc1 (stereo unspecified)	1%	6	1.5%	32%
C=CC(=O)Nc1ccc(Nc2nc(NC3CCC(N(C)C)CC3)nc3c2ncn3C(C)C)cc1 (stereo unspecified)	nt	nt	-3.4%	-6%

A portion of the library; count on the stated rates, not on these rows.
